ELG1 genotoxic: qHTS screen for small molecules that induce genotoxicity in human embryonic kidney (HEK293T) cells expressing luciferase-tagged ELG1; HEK293T ELG1-luciferase reporter, luminescence, 16 h; Potency, µM (series often up to 46 µM), for the others: at the highest dose activity change, positive = activation, most hits filed as activators; 330,000 tested, 1.3% active; AID 504466, 2011; also: potency is read from the fitted curve at half-maximal effect; % of control where 0% means no effect; nearly all actives have a fitted effect of over 60% in size
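Genotoxic stress is detected as increased luminescence from luciferase-tagged ELG1 in HEK293T cells, measured with ONE-Glo after a 16 hr treatment at 37 °C.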
BRCA1 expr act: qHTS Assay to Identify Small Molecule Activators of BRCA1 Expression; MCF7-BRCA1-FFLuc reporter, luminescence, 48 h; response scale: scaled: vehicle 0%, 10 µM genistein 100%; Potency, µM (top dose mostly 46.1 µM), for inactives: top-dose activation, most hits filed as activators; 380,000 tested, 1.1% active; also: potency is read from the fitted curve at half-maximal effect; nearly all actives have a fitted effect of over 80% in size; some results filed as inactive show a strong effect at the top dose
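MCF7 cells carrying a BRCA1-firefly luciferase reporter (2000 cells/well, phenol-red free MEM) were attached for 2 h at 37 °C, then given compounds for 48 h. Luminescence was read 15 min after luciferase reagent; activity normalized to genistein (10 microM) and DMSO.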
TRPV1 ag: HTS Assay for Compounds that Act as Agonists of the Vanilloid Receptor 1. TRPV1-expressing cells, Fluo-8 calcium influx, agonist mode. activation, % at 8.33 µM. 320,000 tested, 0.19% active. AID 540275, 2011. Transient receptor potential cation channel subfamily V member 1 (Homo sapiens), Q8NER1; in the data active = activation above about 80%; inconclusive = between about 30% and that limit; also: 0% is about no effect
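Fluo-8 calcium influx in TRPV1-expressing cells, kinetic read (ex 480/em 520 nm). Compound added and read 3 min for agonist activity, followed by capsaicin at EC20 final and 2 min further read for enhancement.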
ELG1 DNA repair: qHTS screen for small molecules that inhibit ELG1-dependent DNA repair in human embryonic kidney (HEK293T) cells expressing luciferase-tagged ELG1; HEK293T ELG1-luciferase reporter, luminescence, 16 h; DNA damage induced by 5-fluorouridine; Potency, µM (series often up to 46.1 µM), without a hit: at the highest dose activity change, negative = inhibition, actives largely listed as inhibitors; 330,000 tested, 2.3% active; AID 504467, 2011; also: potency is read from the fitted curve at half-maximal effect; % is scaled to controls: 0 for no effect and ±100 for the full control effect; nearly all actives have a fitted effect of over 55% in size
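Overnight (16 hr) co-exposure of 2,000 cells/well to 5-fluorouridine and compound at 37 °C preceded detection. Luciferase was quantified via ONE-Glo luminescence; loss of signal denotes inhibition.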
Tb PFK block: qHTS Assay to Find Inhibitors of T. brucei phosphofructokinase. ATP-dependent 6-phosphofructokinase (Trypanosoma brucei brucei), O15648. T. brucei PFK, ADP-Glo luminescence. Potency, µM (titrated, usually from 57.5 µM), for the others: at the highest dose activity, negative = inhibition, most hits filed as inhibitors. 330,000 tested, 0.17% active;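 also: potency is read from the fitted curve at half-maximal effect; 0% = uninhibited 1x PFK enzyme wells and -100% = no-enzyme wells; nearly all actives have a fitted effect of over 60% in size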
Target sequence (O15648 whole entry, looked up): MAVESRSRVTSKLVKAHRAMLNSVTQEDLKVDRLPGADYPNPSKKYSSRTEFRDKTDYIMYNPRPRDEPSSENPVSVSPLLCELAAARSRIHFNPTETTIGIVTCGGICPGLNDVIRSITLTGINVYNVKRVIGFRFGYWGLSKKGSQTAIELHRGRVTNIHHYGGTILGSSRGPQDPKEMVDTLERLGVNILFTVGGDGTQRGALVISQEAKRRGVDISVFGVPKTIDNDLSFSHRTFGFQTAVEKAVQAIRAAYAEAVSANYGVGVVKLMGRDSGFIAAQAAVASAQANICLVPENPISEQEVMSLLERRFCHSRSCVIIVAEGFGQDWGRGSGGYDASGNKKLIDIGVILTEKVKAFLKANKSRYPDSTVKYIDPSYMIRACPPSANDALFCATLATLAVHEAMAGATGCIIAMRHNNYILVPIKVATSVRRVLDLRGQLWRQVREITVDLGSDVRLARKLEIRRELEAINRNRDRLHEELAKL
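In TEA buffer at pH 8.0 with 5 mM MgCl2, enzyme (1.25 nM) converted F6P (0.5 mM) and ATP (0.1 mM) for 45 min at room temperature. ADP product was read by luciferase luminescence.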
NPC1 prom act: qHTS Assay for NPC1 Promoter Activators; Huh7 NPC1 promoter luciferase reporter, 24 h; Potency, µM (titrated, usually from 9.22 µM), without a hit: top-dose activation, hits mostly activators; 320,000 tested, 2.4% active; AID 485313, 2010;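 also: potency is read from the fitted curve at half-maximal effect; % of control where 0% means no effect; nearly all actives have a fitted effect of over 60% in size; reporter is driven by a mutant NPC1 promoter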
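Stable NPC1-promoter luciferase Huh7 line; cpd (DMSO) 24 h, 37 °C, 5% CO2; Amplite luciferase reagent 10 min RT; luminescence readout. qHTS format.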
Numbers without * were called inactive; ? = inconclusive; · = no result given; & = joins results of further samples; [ ] = another dose, or the depositor's remark. Unless noted, calls follow the shape of the dose curve; as a rule, active = well fitted curve in the direction sought with a large enough effect; inconclusive = small, poorly fitted or top-dose-only effect, or another doubt; inactive = no such curve, though single readings can be large; an effect the other way counts as inactive or inconclusive.

Keys: A = ELG1 genotoxic; B = BRCA1 expr act; C = TRPV1 ag; D = ELG1 DNA repair; E = Tb PFK block; F = NPC1 prom act
1. CCCCCC(O)C=CC1C(O)CC(O)C1CC=CCCCC(=O)O (configuration not stated)
  A: · | B: -3.1% | C: · | D: · | E: · | F: ·

2. CN(C)CCN=c1cc(-c2ccccc2)oc2ccc(Cl)cc12
  A: ? | B: ? | C: 9.8 | D: ? | E: -0.7% | F: 2.82µM*

3. CC(=O)OCC(=O)[C@@]1(O)CCC2C3CCC4=CC(=O)CCC4(C)C3C(=O)CC21C (some centres not stated)
  A: -0.1% | B: -1.3% | C: -1.3 | D: -4.0% | E: 0.5% | F: -4.0%

4. CC12CCC(=O)C=C1CCC1C2C(O)CC2(C)C1CCC2(O)C(=O)CO (configuration not stated)
  A: 7.3% | B: -15.6% | C: -1.7 | D: 21.4% | E: -6.2% | F: -2.6%

5. CN(C)c1ccc(O)c2c1CC1CC3[C@@H](N(C)C)C(=O)C(C(N)=O)C(=O)[C@]3(O)C(=O)C1C2=O (some centres not stated)
  A: 0.4% | B: 3.8% | C: · | D: 1.4% | E: -18.0% | F: ·

6. N=C(N)N1CCc2ccccc2C1
  A: -1.0% | B: · | C: -1.7 | D: 9.6% | E: -1.5% | F: -6.9%

7. Cc1ncc([N+](=O)[O-])n1CCO
  A: 6.7% | B: 19.3% | C: 0.7&1.6 | D: 8.7% | E: -4.7%&0.5% | F: -1.9%&-2.2%

8. CC(=O)OCC(=O)[C@@]12OC(C)(C)O[C@@H]1CC1C3C[C@H](F)C4=CC(=O)C=CC4(C)[C@@]3(F)C(O)CC12C (some centres not stated)
  A: ? | B: -23.1% | C: 10.1 | D: 19.3% | E: -3.2% | F: 0.6%

9. NC(N)=[N+]1CCc2ccccc2C1
  A: · | B: · | C: · | D: · | E: · | F: 5.7%[46.1 µM]

Given field by field: part of the list above.
#7 Cc1ncc([N+](=O)[O-])n1CCO
- ELG1 genotoxic: 6.7%
- BRCA1 expr act: 19.3%
- TRPV1 ag: 0.7&1.6
- ELG1 DNA repair: 8.7%
- Tb PFK block: -4.7%&0.5%
- NPC1 prom act: -1.9%&-2.2%
#8 CC(=O)OCC(=O)[C@@]12OC(C)(C)O[C@@H]1CC1C3C[C@H](F)C4=CC(=O)C=CC4(C)[C@@]3(F)C(O)CC12C (some centres not stated)
- ELG1 genotoxic: ?
- BRCA1 expr act: -23.1%
- TRPV1 ag: 10.1
- ELG1 DNA repair: 19.3%
- Tb PFK block: -3.2%
- NPC1 prom act: 0.6%

An excerpt of these results, with values under each structure.
Under each structure – ELG1 genotoxic | BRCA1 expr act | TRPV1 ag | ELG1 DNA repair | Tb PFK block | NPC1 prom act
2. CN(C)CCN=c1cc(-c2ccccc2)oc2ccc(Cl)cc12
  ? | ? | 9.8 | ? | -0.7% | 2.82µM*
3. CC(=O)OCC(=O)[C@@]1(O)CCC2C3CCC4=CC(=O)CCC4(C)C3C(=O)CC21C (some centres not stated)
  -0.1% | -1.3% | -1.3 | -4.0% | 0.5% | -4.0%
4. CC12CCC(=O)C=C1CCC1C2C(O)CC2(C)C1CCC2(O)C(=O)CO (configuration not stated)
  7.3% | -15.6% | -1.7 | 21.4% | -6.2% | -2.6%
5. CN(C)c1ccc(O)c2c1CC1CC3[C@@H](N(C)C)C(=O)C(C(N)=O)C(=O)[C@]3(O)C(=O)C1C2=O (some centres not stated)
  0.4% | 3.8% | · | 1.4% | -18.0% | ·

Along the list, quoted from above:
ELG1 genotoxic, compounds 1 to 5: ·, ?, -0.1%, 7.3%, 0.4%

A portion of the library, so the mix of outcomes need not match the whole.
